# Bioassay records deposited in PubChem BioAssay by National Center for Advancing Translational Sciences (NCATS).
# HTT prom inh – inhibitors of huntingtin promoter activity. 48,000 tested, 0.93% active. HEK293 HTT promoter firefly luciferase reporter (activity 0% = vehicle and -100% = no light), 24 h. Potency, µM (doses to about 57.5 µM), without a hit: top-dose activity change, negative = inhibition, hits mostly inhibitors; active = well fitted inhibition curve with a large enough effect; inconclusive = small, poorly fitted or top-dose-only effect; inactive = no such curve, though single readings can be large or run the other way; note: nearly all actives have a fitted effect of over 50% in size
#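 HEK293 luciferase promoter-reporter cells (2,500/well) plated 24 h, then compounds added at up to 57.5 uM final for 24 h at 37 °C. Firefly luminescence by Dual-Glo, normalized to vehicle (0%) and zero RLU (-100%).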
# PMP22 txn – modulates PMP22 transcription in S16 Schwann cells | S16 Pmp22-F2sN Schwann cells (luciferase reporters placed in the Pmp22 gene), FLuc/NLuc coincidence luminescence, 24 h | 43,000 tested, 2% active | Potency, µM (top dose mostly 57.5 µM), for inactives: at the top dose activity change, negative = inhibition, actives largely listed as inhibitors; active = clear falling dose curves in both reporters; inconclusive = both reporters move, but less clearly or upward; inactive = either reporter flat; the % is the NLuc reporter signal; note: % is set by controls: 0 for no effect and ±100 for the full control effect; some results filed as inactive show a strong effect at the top dose
#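 Luminescent read-out of sequential FLuc and NLuc signals from a reporter embedded in the Pmp22 3' UTR of S16 Schwann cells, taken after 24 h compound exposure at 37C; compounds reducing both signals score as inhibitors of expression.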
# * hit, by the source's call; u = inconclusive; x = not tested or not shown; [ ] = another dose, or the depositor's remark. Potency is the fitted concentration of half-maximal effect.
# The line under a structure holds: HTT prom inh | PMP22 txn
- COc1cc2c(cc1OC)n(CC(=O)Nc1ccc(C)cc1C)c(=O)n1nc(-c3ccccc3)nc21
→ -12% | 25%
- Cc1ccc(Cl)cc1NC(=O)Cn1nnc2sc3c(c2c1=O)CCC(C(C)(C)C)C3 (stereo not given)
→ -27% | -30%
- O=C(Cn1nc(Cc2ccncc2)c2ccccc2c1=O)Nc1cccc(C(F)(F)F)c1
→ u | -29%
- CCN(CC)CCNC(=O)c1ccc(Cn2c(SCc3ccccc3)nc3cccnc32)cc1
→ 38%[activator] | 12%
- COCCN1Cc2cccc(C(=O)Nc3ccc(C(=O)OC)cc3)c2C1=O
→ -1% | -2%
- COc1ccc(OC)c(NC(=O)Cn2c(=O)oc3cc(S(=O)(=O)NCc4ccccc4)ccc32)c1
→ -30% | -6%
- CCc1ccccc1NC(=O)c1ccc2c(c1)CCCN2S(C)(=O)=O
→ 1% | 26%
- COc1ccc(CNC(=O)Cn2nc(C)c3c(C)n(-c4ccccc4)nc3c2=O)cc1OC
→ -14% | -11%
- CCOc1ccc(S(=O)(=O)n2nc(C)c(S(=O)(=O)N3CCCCCC3)c2C)cc1
→ -11% | -2%
- Cc1ccccc1N(C)S(=O)(=O)c1nnc(NC(=O)c2ccco2)s1
→ -6% | -30%
- CCOc1ccc(CCNC(=O)c2cc3c(-c4ccccc4F)nn(C)c3s2)cc1
→ -25% | 0%
- COc1cc(C(=O)Nc2nc3nc(-c4ccccc4)cc(=O)n3[nH]2)cc(OC)c1OC
→ -15% | -91%
- Cc1ccc(C(=O)OCc2cc(=O)n3nc(-c4cccs4)sc3n2)cc1
→ -3% | -53%
- CCn1c(=O)c2sccc2n2c(CCCC(=O)N3CCN(c4cc(C)ccc4C)CC3)nnc12
→ -14% | u
- COc1cc2c(cc1OC)CN(CCc1ccc(NC(=O)c3cc(OC)c(OC)cc3NC(=O)c3cnc4ccccc4c3)cc1)CC2
→ -19% | x
- Cc1ccc(Nc2ncnc3c2nc2n3CCCC2)cc1F
→ -10% | -12%
- COc1ccc(NC(=O)CCc2nnc3n(Cc4ccc(C)cc4)c(=O)c4ccccc4n23)cc1
→ -17% | u
- CNS(=O)(=O)c1cn(CC(=O)N2CCN(c3cc(C)ccc3C)CC2)cc1S(=O)(=O)NC
→ 7% | -17%
- CCc1nc(SCc2cc(=O)c3cc(F)ccc3[nH]2)n[nH]1
→ -2% | 6%
- CCOc1ccc(N2CC(NC(=O)C3CC3)CC2=O)cc1 (stereo not given)
→ -2% | 13%
- CCOc1ccc(NC(=O)c2c(NCc3ccc(C)o3)sc3c2CCCCC3)cc1
→ -10% | u
- O=C(NCCc1ccccc1)c1ccc2c(c1)CCN2S(=O)(=O)c1ccc(Br)cc1
→ u | -17%
- Cc1cccc(NC(=O)C(=O)NCC(c2ccc3c(c2)OCO3)N2CCN(c3ccccc3)CC2)c1 (stereo not given)
→ -11% | -5%
- CCN(c1ccccc1)S(=O)(=O)c1ccc(NC(=O)c2cc(=O)c3cc(C)c(C)cc3o2)cc1
→ -25% | 7%
- Cc1ccc(C)c(N(C)C(=O)c2cc3c(s2)-c2ccccc2OC3)c1
→ -2% | -1%
- Cc1cc2c(n1-c1ccc(C(=O)NCc3cccc(Br)c3)cc1)CCC(C)C2 (stereo not given)
→ u | u
- COc1ccc(-c2nc(CNC(=O)NC3CCCCC3)c(C)o2)cc1
→ 0% | 0%
- O=C(NCCCN1CCN(c2ccccc2F)CC1)c1ccc2nc(Cc3ccccc3)oc2c1
→ u | u
- Cc1cccc(C(=O)Nc2nnc(S(=O)(=O)N3CCCc4ccccc43)s2)c1
→ u | -20%
- CCc1cccc(NC(=O)CN2C(=O)COc3ccc(S(=O)(=O)N4CCC(C)CC4)cc32)c1
→ u | -8%

# Compounds shown so far that contain fluorine (5):
# The line under a structure holds: HTT prom inh | PMP22 txn
- O=C(Cn1nc(Cc2ccncc2)c2ccccc2c1=O)Nc1cccc(C(F)(F)F)c1
→ u | -29%
- CCOc1ccc(CCNC(=O)c2cc3c(-c4ccccc4F)nn(C)c3s2)cc1
→ -25% | 0%
- Cc1ccc(Nc2ncnc3c2nc2n3CCCC2)cc1F
→ -10% | -12%
- CCc1nc(SCc2cc(=O)c3cc(F)ccc3[nH]2)n[nH]1
→ -2% | 6%
- O=C(NCCCN1CCN(c2ccccc2F)CC1)c1ccc2nc(Cc3ccccc3)oc2c1
→ u | u

# More results follow:
# The line under a structure holds: HTT prom inh | PMP22 txn
- Cc1cccc(NC(=O)CSc2nc(-c3ccco3)nc3cc(=O)[nH]n23)c1
→ -10% | u
- COc1cccc(CSc2nc(-c3ccccc3OC)nc3c2Cc2c(CO)cnc(C)c2O3)c1
→ u | u
- Cc1cccc(-c2nc(CCNC(=O)c3ccc(Br)o3)cs2)c1
→ -7% | 7%
- COc1ccc(CNC(=O)CC2N=C3c4ccccc4N=C(SCC(=O)Nc4ccc(N(C)C)cc4)N3C2=O)cc1 (stereo not given)
→ u | u
- COc1ccccc1C(=O)Nc1cccc(OCc2cc(=O)n3ccccc3n2)c1
→ 22% | u
- Cc1c(CNC2CCCCCC2)c(C(=O)O)c(C)n1Cc1cccc(Cl)c1
→ -3% | -1%
- Cc1cccc(-c2c3c(=O)n(C)c(=O)n(C)c3c3cnc4ccccc4n23)c1
→ -6%[11.5 µM] | -3%
- COc1ccccc1CCNC(=O)C(=O)NCC(c1cccs1)S(=O)(=O)c1ccc(F)cc1 (stereo not given)
→ u | u
- CCN(C(=O)CSc1ncc2c(n1)-c1cc(Cl)ccc1N(Cc1ccccc1)S2(=O)=O)c1cccc(C)c1
→ -15% | u
- CC1=Nc2cc(C(=O)N3CCCCC3)ccc2Sc2ccc(C)cc21
→ -12% | -26%
- Cc1cc(C)c(S(=O)(=O)N2CCN(Cc3ccc4c(c3)OCO4)CC2)cc1C
→ -20% | u
- CN(C(=O)CSc1nc2ncccc2o1)c1ccc(F)cc1
→ 0% | -31%
- Cc1ccc(C(=O)c2cn(Cc3cccc(C)c3)c3nc(C)ccc3c2=O)cc1
→ -20% | u
- CCn1c(=O)n(-c2ccc(F)c(Cl)c2)c(=O)c2c3c(sc21)CN(C(C)=O)CC3
→ -13% | -43%
- COc1ccc(N2CCN(C(=O)Cn3c(-c4cccs4)cc4ccccc43)CC2)cc1
→ -26% | u
- CCOC(=O)c1c(C)oc2c(Cl)cc(NS(=O)(=O)c3ccc(Cl)c(C)c3)cc12
→ -20% | u
- O=C(NCc1ccco1)c1ccc2c(c1)N(Cc1ccc(F)cc1)C(=O)c1ccccc1S2=O (stereo not given)
→ u | u
- O=C(NCCc1ccc(Cl)cc1)c1ccc2c(c1)nc1n2CCOC1
→ 11% | -60%
- Cc1oc2ncn(CC(C)C)c(=O)c2c1C(=O)NCCCN1CCCCC1C (stereo not given)
→ 0% | -14%
- CCN(CC)S(=O)(=O)c1ccc2nc(NC(=O)c3ccccc3OC)sc2c1
→ -32% | -10%
- COc1ccc(-c2cc(-c3ccccc3)nc3c2COc2ccccc2-3)cc1
→ -5% | 5%
- CCOc1ccccc1NC(=O)COC(=O)CC(C)(C)CC1=NS(=O)(=O)c2ccccc2N1
→ u | u
- Cc1ccc(CNC(=O)C2CCCN(c3ncnc4onc(-c5ccc(F)cc5)c34)C2)cc1 (stereo not given)
→ -12% | -12%
- CCn1c(=O)c2cc(C(=O)NC3CCCCCC3)sc2c2ccccc21
→ u | u
- CC1(C)CC(=O)c2cc(C(=O)Nc3ccccc3Cl)c(=O)n(-c3ccc(Cl)cc3)c2C1
→ -22% | 19%
- O=C(NCc1ccccc1)C(=O)NCC(c1ccco1)S(=O)(=O)c1cccs1 (stereo not given)
→ -21% | 2%
- COc1ccccc1NC(=O)Cn1c(SCC(=O)Nc2ccc(F)cc2)nc2ccccc21
→ u | -1%
- O=C(CSc1nc2c([nH]c3ccccc32)c(=O)n1-c1ccc(F)cc1)N1CCCCCC1
→ -14% | u
- COc1ccc(S(=O)(=O)N(Cc2nc(-c3cccc(C)c3)no2)C2CCCCC2)cc1
→ u | u
- CCOc1ccccc1CNC(=O)c1ccc2c(c1)sc1nc(-c3ccccc3)cn12
→ 10% | 7%
- CCOC(=O)c1c(C)[nH]c(CCC(=O)NCc2cc(Br)ccc2OC)c1C
→ -30% | u
- COc1ccc(NC(=O)Cn2nc(C(F)(F)F)c3c2CCCC3)cc1OC
→ u | u
- CCn1c(=O)cc(OCC(=O)NCc2ccccc2Cl)c2ccccc21
→ 0% | -1%
- CCOC(=O)N1CCc2c(sc(NCc3cc(OC)c(OC)cc3OC)c2C(=O)Nc2ccc(OCC)cc2)C1
→ -16% | 4%
- Cc1cc2c(cc1S(=O)(=O)C(C)CC(=O)NC1CCC(C)CC1)OCC(=O)N2 (stereo not given)
→ 0% | 2%
- CCSc1nc2sc3c(c2c(=O)n1-c1ccc(C)cc1)CCCC3
→ -21% | -28%
- CCOc1ccc(Cn2c(CNS(=O)(=O)c3cccc(Cl)c3)nc3cccnc32)cc1
→ -18% | -16%
- O=C(Nc1c(C(=O)O)oc2ccccc12)c1ccc(C(F)(F)F)cc1
→ -22% | -16%
- Cc1ccc(NC(=O)c2ccc(-n3c(C)nnc3C)cc2)cc1F
→ -18% | 3%
- CN1CC(=O)N/C1=N/C(=O)Nc1cccc(Cl)c1
→ 33%[activator] | x
- CCCCN(CC)CCNC(=O)C1CCCN(c2ncnc3onc(C)c23)C1 (stereo not given)
→ 3% | -24%
- COc1ccccc1N1CCN(C(CNC(=O)C(=O)NCCc2ccccc2)c2cccnc2)CC1 (stereo not given)
→ 7.1µM* | u
- Cc1ccc(CNCc2ccccc2Cl)s1
→ 23% | u
- Cc1ccc(-c2c(C)n3c4c(=O)n(C)c(=O)n(C)c4nc3n2-c2cccc(O)c2)cc1
→ -13% | 16µM*
- COc1cc2c(=O)c(S(=O)(=O)c3ccccc3)cn(CC(=O)Nc3ccccc3C)c2cc1OC
→ -15% | -27%
- CCc1ccc(CNC(=O)C2CCCN(c3nnc(C)c4c(C)n(-c5ccccc5)nc34)C2)cc1 (stereo not given)
→ -15% | u
- CC1CCc2c(sc3nnn(Cc4ccccc4)c(=O)c23)C1 (stereo not given)
→ -20% | -8%
- COc1ccc(Cn2c(SCc3ccc(C(=O)NCc4ccc(C)cc4)cc3)nc3cccnc32)cc1
→ u | u
- COCCn1c(CNC(=O)c2cc(OC)c(OC)c(OC)c2)nc2cccnc21
→ 2% | -32%
- CC(C)NC(=O)c1cc2c(Cl)nc3ccccc3c2s1
→ -6% | u
- Cc1n[nH]c(C)c1S(=O)(=O)N(CC(=O)NCc1ccccc1Cl)c1ccc(C(C)C)cc1
→ -24% | -23%
- COCCCNC(=O)Cn1c(=O)n(-c2cccc(C)c2)c(=O)c2c1c1cc(C)ccc1n2C
→ -12% | 1%
- COc1ccc(CNC(=O)c2cc3c(=O)n(Cc4cccs4)ccc3nc2C)cc1
→ u | -15%
- Cc1cccc(-n2c3nc(=O)n(C)c(=O)c-3cc3c(Cl)cccc32)c1C
→ -6% | -11%
- COc1cc(NC(=O)CSc2nc3ncccc3o2)cc(OC)c1
→ -6% | 51%
- CC1(C)O[C@@H]2C[C@H]3[C@@H]4CCC5=CC(=O)CC[C@]5(C)[C@@]4(F)[C@@H](O)C[C@]3(C)[C@]2(C(=O)CCl)O1
→ -4% | x
- COc1cccc(C(=O)c2sc(Nc3ccc(C)cc3C)c(S(=O)(=O)c3ccccc3)c2N)c1
→ -24% | -36%
- CC(C)(C)C(=O)N1CCN(c2nc3c(F)cccc3s2)CC1
→ 7% | -14%
- COc1ccccc1CNC(=O)Cn1ncc2c(C)n(Cc3ccccc3Cl)c(C)c2c1=O
→ -17% | -16%
- CCOc1ccc(NC(=O)Cn2c(=O)n(Cc3ccc(C(=O)NCc4ccc5c(c4)OCO5)cc3)c(=O)c3ccccc32)cc1
→ -12% | u

# (list continues)
# The line under a structure holds: HTT prom inh | PMP22 txn
- CCc1ccc(N(CC)C(=O)Cn2c(=O)oc3ccccc32)cc1
→ -20% | 60%
- Cc1cc(C)cc(NC(=O)Cc2noc3ccccc23)c1
→ 37%[activator] | u
- Cc1cccc(NC(=O)CN2C(=O)c3cccc4cccc2c34)c1C
→ -9% | u
- COC(=O)c1ccccc1NC(=O)CN1C(=O)COc2ccccc21
→ -1% | 2%
- COc1ccc(NC(=O)CN2CCN(Cc3ccccc3Cl)S2(=O)=O)cc1Cl
→ -33% | u
- COc1ccc(C(=O)c2cn(Cc3ccccc3)c3ccccc3c2=O)cc1OC
→ -26% | -4%
- CCc1cccc(NC(=O)c2c(C)oc3nc(C)nc(N4CCCC4)c23)c1
→ -7% | 2%
- CCc1cccc(NS(=O)(=O)c2ccc3c(c2)CC(C)N3C(=O)C2CC2)c1 (stereo not given)
→ 14µM* | u
- CCc1ccc(CNC(=O)c2ccc3c(c2)N=C(C)c2cc(C)ccc2S3)cc1
→ u | u
- CCCCc1ccc(C(=O)Nc2ccc3nc(N(CC)CC)cc(C)c3c2)cc1
→ u | u
- COc1ccc(N2C(=O)CS(=O)(=O)C23C(=O)N(Cc2ccccc2)c2ccccc23)cc1 (stereo not given)
→ -29% | -18%
- Cc1ccc(CS(=O)(=O)c2ncc(Cl)c(C(=O)Nc3nc4ccc(F)cc4s3)n2)cc1
→ u | 5.4µM*
- COc1ccc(S(=O)(=O)NCCS(=O)(=O)N2CCN(c3ccccc3)CC2)cc1OC
→ -18% | -18%
